Compound activity as filed in PubChem BioAssay.
Mtb H37Rv – Confirmatory growth inhibition assay against Mycobacterium tuberculosis H37Rv, potency (AID 1949); most inactive calls were filed without a number and no value below 0 was filed; one-dose inhibition, % at 10 µg/mL; IC50 in µg/mL for titrated hits; 1.6% of 100,000 active;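 active means confirmed in a dose series; inconclusive means about 50% or more but not retested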;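 further: bacteria grown 7 days with compound before Alamar blue readout; 0% = untreated bacteria and 100% = reference antibiotic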
The depositor's hits bear a star; i = inactive; ? = inconclusive. Some of the compounds tested; the hit share may differ from the screen's.

SMILES	Mtb H37Rv
CC(=O)c1cccc(NC(=O)C(=O)N2CCCCC2)c1	i
CNS(=O)(=O)c1cc(OC)ccc1OC	i
CC(C)CNS(=O)(=O)c1ccc(CCC(=O)N2CCN(c3ccc(F)cc3)CC2)cc1	i
Cc1occc1C(=O)NNC(=S)Nc1ccccc1C(F)(F)F	i
COc1ccc(C2C3=C(CC(C)(C)CC3=O)Nc3c2c(=O)[nH]c(=O)n3Cc2ccccc2)cc1 (stereo not given)	i
Cc1ccc(C(CCNCc2ccc(N(C)C)cc2)c2ccco2)cc1 (stereo not given)	?
CCOc1cc(S(=O)(=O)NCc2ccncc2)ccc1Cl	i
Cn1c(=O)c2c(ncn2CCCC#N)n(C)c1=O	i
COC(=O)c1c(-c2ccc(Cl)cc2)csc1NC(=O)C1CCC1	i
O=C(CCN1C(=O)c2ccccc2C1=O)NC1CCS(=O)(=O)C1 (stereo not given)	1%
CN(C(=O)c1ccc(Br)o1)C1CCCCC1	8%
CCCCN1C(=O)NC(NC(C)=O)(C(F)(F)F)C1=O (stereo not given)	i
O=C(NCc1cccs1)Nc1ccc([N+](=O)[O-])cc1	3%
COc1cc(-c2nc(-c3ccc(C)cc3)no2)cc(OC)c1OC	i
COc1ccc(CN(C)C(=O)c2cccc([N+](=O)[O-])c2)cc1OC	i
O=c1[nH]c2ccc(S(=O)(=O)Nc3ccc(O)cc3)cc2[nH]1	i
CCOC(=O)N1CCC(NC(=O)CSc2nc(-c3ccc(Br)cc3)cc(C(F)(F)F)c2C#N)CC1	3%
COc1ccc(C(=O)NC(=S)Nc2nc(-c3ccc4ccccc4c3)cs2)cc1[N+](=O)[O-]	i
COc1cc(C(=O)NCCOc2ccccc2)c(Br)c(OC)c1OC	i
C=CCc1cccc(C)c1OCCCN1CCC(C)CC1	i
COc1ccccc1C1C2=C(CCCC2=O)Nc2ccc3ccccc3c21 (stereo not given)	6%
Cc1ccc(-c2nc3ccccc3c(C(=O)NC3CCCCC3)c2C)cc1	i
CCOc1cc(CN2CCN(Cc3cccc(OC)c3)CC2)ccc1OC	i
COc1ccc(OC)c(NC(=S)NCCc2ccc(Cl)cc2)c1	5%
O=S1(=O)NC(=NC23CC4CC(CC(C4)C2)C3)c2ccccc21	i
CCOc1ccccc1OCCCNCc1ccco1	i
CC1CCN(C(=O)c2ccc(NS(=O)(=O)c3cccc4cccnc34)cc2)CC1	i
CN(C)S(=O)(=O)c1ccc(NC(=O)Nc2ccccc2)cc1	i
Cc1cccc(N2C(=O)/C(=C/c3c(F)cccc3Cl)SC2=S)c1	i
O=C(CN1C(=O)c2ccccc2C1=O)Oc1ccccc1Cl	i
COC(=O)c1sc(NC(=O)c2sc3cc(Cl)ccc3c2Cl)c(C#N)c1C	i
COc1c(C)cccc1C(=O)Nc1ccccc1C#N	i
CCn1c(SCC(=O)Nc2ccc(C)cc2)nnc1-c1ccc(Cl)c(Cl)c1	2%
CCC(C)NCCOc1cccc(C(F)(F)F)c1 (stereo not given)	i
Cc1cc(C)nc(SCC(=O)N2c3ccccc3C(C)CC2(C)C)n1 (stereo not given)	2%
O=C(Cc1ccc(Cl)cc1)Nc1cccc(NC(=O)c2cccs2)c1	i
Cc1cc(Cl)c(S(=O)(=O)Nc2cccnc2)cc1OCC(N)=O	i
CCN1CCCC1CNC(=O)C(=O)Nc1cccc(C(F)(F)F)c1 (stereo not given)	i
CC(=O)Nc1ccc(-c2ccnc(-c3ccc(NC(C)=O)cc3)n2)cc1	0%
NS(=O)(=O)c1ccc(NC(=S)Nc2ccc(F)c(F)c2)cc1	18%
CCC(CC)C(=O)Nc1ccc(NC(=O)c2cccs2)cc1	i
COc1ccc(Nc2nc(C)cc(C)c2C(N)=O)c(OC)c1	i
CCCSc1nc(-c2cccs2)cc(C(F)(F)F)c1C#N	i
Oc1ccc(C(=S)N2CCCCC2)cc1Cl	1%
O=C(Cn1cnc2scc(-c3ccc(Br)cc3)c2c1=O)NCc1ccccc1	i
CCC(C)Nc1nc(OC)nc(Oc2ccc(=O)[nH]n2)n1 (stereo not given)	i
CCOC(=O)N1CCN(S(=O)(=O)c2cc(OCC(N)=O)c(C)cc2Cl)CC1	2%
CSc1ccccc1NS(=O)(=O)c1c(C)cc(C)cc1C	i
Cc1cc(OCCCn2cnc3ccccc32)ccc1[N+](=O)[O-]	4%
CN1CCN(CCCOc2cccc(Br)c2)CC1	i
CCOc1ccc(NC(=O)CN2C(=O)C3CC=CCC3C2=O)cc1 (stereo not given)	i
COc1ccc(C(=O)NC2CCC(NC(=O)c3ccc(OC)c(OC)c3)CC2)cc1OC (stereo not given)	i
CCC(C(=O)Nc1nnc(SCCOC)s1)c1ccccc1 (stereo not given)	i
COc1cccc(OC)c1C(=O)NC(C)C12CC3CC(CC(C3)C1)C2 (stereo not given)	i
COc1ccc(CNC(=O)CN(c2ccc(OC)cc2)S(C)(=O)=O)cc1	i
Fc1ccc(CNC(=S)NNC(=S)NC2CCCCC2)cc1	i
COc1ccc(S(=O)(=O)Nc2ccc(CC#N)cc2)cc1C	i
NCCCNCCOc1ccc(Cl)cc1	i
Cc1ccc(S(=O)(=O)N(CC(=O)Nc2cccc([N+](=O)[O-])c2)c2ccccc2Cl)cc1	i
COc1cccc(NC(=O)CCc2nc(-c3ccccc3Cl)no2)c1	4%
Continuation:
SMILES	Mtb H37Rv
COc1ccc(N2C(=O)CC(N3CCN(c4nc5ccccc5s4)CC3)C2=O)cc1 (stereo not given)	i
NS(=O)(=O)c1ccc(NC(=O)C2CC2)cc1	i
O=C(CC(Nc1ccc(F)cc1)C(=O)O)c1ccccc1 (stereo not given)	i
CC(C)c1ccc(NC(=O)c2ccccc2N(Cc2ccccc2)S(C)(=O)=O)cc1	i
CC(O)CNCc1ccccc1C(F)(F)F (stereo not given)	i
COc1ccc(-c2noc(-c3cc(Cl)ccc3OC)n2)cc1	i
COc1ccc(N(CC(=O)Nc2ccccc2Sc2ccccc2)S(C)(=O)=O)cc1OC	i
N#Cc1c(SCCN2CCCC2)nc2c(c1C(F)(F)F)CC(c1ccccc1)CC2 (stereo not given)	47µg/mL*
Cc1nnc(SCC(=O)Nc2ccc(C)c(Cl)c2)s1	4%
Cc1cc(Cl)ccc1OCC(=O)n1cnnc1N	i
CCN(C1CCCCC1)S(=O)(=O)c1cc(OC)ccc1OC	i
C=CCNC(=S)Nc1cc(Cl)ccc1OC	1%
CCOC(=O)c1sc(NC(=O)c2ccc(-c3ccccc3[N+](=O)[O-])o2)nc1C	i
CSc1ccccc1NC(=O)CC1Nc2cc(C)c(C)cc2NC1=O (stereo not given)	i
N#C/C(=C/c1cccc([N+](=O)[O-])c1)c1ccc(F)cc1	i
CC(C)(C)c1ccc(NC(=O)Nc2nnc(Cc3ccc([N+](=O)[O-])cc3)s2)cc1	i
CCOc1ccc(NC(=O)CCSc2nnc(C)s2)cc1	10%
O=C(CNC(=O)c1ccc(Br)o1)Nc1cccc(-c2cnc3ccccc3n2)c1	i
O=C1CCCc2c1cc(C(=O)Nc1cccc(F)c1)c(=O)n2-c1ccccc1	i
COc1cccc(CNc2ccc3c(c2)nc(C)n3C)c1	i
N#Cc1ccc(N2CCN(CCCNC(=O)Nc3ccccc3)CC2)cc1	i
Cc1ccc(S(=O)(=O)NC(C)C(=O)Nc2cc([N+](=O)[O-])ccc2C)cc1 (stereo not given)	i
CCOC(=O)Cc1cc(-c2ccc(O)cc2)nc2ccc3ccccc3c12	2%
Cc1nn(-c2ccccc2)c(=O)c2ccccc12	i
Cc1[nH]nc2c1C(c1ccc(OCC(N)=O)cc1)C(C#N)=C(N)O2 (stereo not given)	i
CCOC(=O)C1CCN(c2ncnc3c2oc2ccccc23)CC1	i
O=C(Nc1ccccc1C(=O)Nc1ccccc1Cl)c1ccccc1I	1%
O=C(Cc1cccs1)Nc1c[nH]c(=O)[nH]c1=O	1%
COc1ccc(C(=O)COc2ccc3c4c(c(=O)oc3c2C)CCCC4)cc1	i
C#CCOc1c(Cl)cc(C2C3=C(CCCC3=O)NC3=C2C(=O)CCC3)cc1OC	i
O=C(O)c1cccnc1SC1CC(=O)N(c2ccccc2Cl)C1=O (stereo not given)	i
CCC12CN3CC(CC)(CN(C1)C(=O)c1ccccc1C3=O)C2=O	i
CC(C)CN(CC(C)C)S(=O)(=O)c1cc([N+](=O)[O-])ccc1N1CCC(C(N)=O)CC1	i
Cc1ccc(Cn2nc(C)c(NC(=O)c3cc4n(n3)C(C(F)(F)F)CC(c3ccco3)N4)c2C)cc1 (stereo not given)	25%
N#CCN(CC#N)C(=O)Cc1ccc(Br)cc1	i
O=C(CS(=O)(=O)c1ccccc1)Nc1cccc(F)c1	i
CCOC(=O)CCc1c(C)nc(SCCCn2c(=O)[nH]c3ccccc32)c(C#N)c1C	i
FC(F)(F)c1cccc(NC(=S)NCCCn2ccnc2)c1	13%
Cc1cc(-c2ccccc2)nc(Sc2ccc([N+](=O)[O-])cn2)n1	i
COc1ccc(S(=O)(=O)NC(C)c2ccccc2)c(Cl)c1Cl (stereo not given)	i

Two neighbouring records out of the list so far:
SMILES	Mtb H37Rv
Cc1cc(-c2ccccc2)nc(Sc2ccc([N+](=O)[O-])cn2)n1	i
COc1ccc(S(=O)(=O)NC(C)c2ccccc2)c(Cl)c1Cl (stereo not given)	i

Next compounds
SMILES	Mtb H37Rv
Cc1ccc(OC(=O)COc2ccc(Cl)cc2Cl)c(Br)c1	i
COc1cc2c(cc1OC)C(c1cccc(Cl)c1)CC(=O)N2 (stereo not given)	i
COc1cc(NC(=O)c2cccc([N+](=O)[O-])c2)ccc1Cl	i
O=C(O)c1cc2nc(-c3ccc(F)cc3)cc(C(F)(F)C(F)(F)F)n2n1	i
CS(=O)(=O)N(CC(=O)NCCc1ccccc1)c1ccc(OCc2ccccc2)cc1	i
Cc1cc(OCc2nc(-c3cccnc3)no2)cc(C)c1Cl	i
COc1ccc(NC(=S)NC(=NCc2ccccc2)c2ccc(C)cc2)cc1	i
COc1ccc(/C=C/c2nc3ccccc3o2)cc1	8%
C=CCSc1ncnc2sc3c(c12)CCC(C)C3 (stereo not given)	i
C=CCn1c(SCC(=O)Nc2nccs2)nc2sc(C)c(C)c2c1=O	i
CCOc1ccc2nc(SCC(=O)Nc3ccccc3Br)[nH]c2c1	27%
CCOc1ccc(NC(=O)NNC(=O)Cc2cccs2)cc1	i
O=C(NCc1cccnc1)Nc1ccccc1C(F)(F)F	i
CCCc1cc(C(=O)NNC(=O)Nc2cccc(C(C)=O)c2)cs1	i
Cc1ccc(C2c3c(oc4ccccc4c3=O)C(=O)N2c2nc(C)c(C)s2)cc1 (stereo not given)	i
Cc1ccc(C)c(OCC(=O)Nc2ccccc2Cl)c1C	i
O=C(Nc1ccc(Cl)cc1F)C12CC3CC(CC(C3)C1)C2	2%
O=C(Nc1ccc(Br)c(Cl)c1)C(F)(F)F	18%
O=C(Nc1ccccc1F)C1CC1c1ccccc1 (stereo not given)	0%
CS(=O)(=O)N(CC(=O)N1CCN(c2cccc(Cl)c2)CC1)c1ccccc1F	i
COc1cc(OC)cc(C(=O)NCc2ccc(F)cc2)c1	i
CCOC(=O)N1CCN(C(=S)Nc2cccc(C)c2C)CC1	i
CCc1ccccc1NC(=O)CN(c1ccc(I)cc1)S(C)(=O)=O	i
CCCn1c(SCC(=O)Nc2ccc(CC)cc2)nnc1-c1ccncc1	i
O=C(Nc1cccc2ncccc12)C(Cl)(Cl)Cl	2%
CC1(C)CC(OC(=O)CC(=O)OC2CC(C)(C)NC(C)(C)C2)CC(C)(C)N1	3%
CN(c1ncnc2c1cnn2-c1ccccc1)C1CCCCC1	24%
COCCn1c(CN2CCc3ccccc3C2)nc2c1c(=O)n(C)c(=O)n2C	i
CCOC(=O)c1ccc(NC(=O)C(=O)NCCCN2CCOCC2)cc1	i
COc1cccc(NC(=O)CN(c2ccc(C)cc2C)S(C)(=O)=O)c1	2%
O=c1c2ccccc2c(-c2ccc(O)cc2)nn1-c1cccc(C(F)(F)F)c1	19%
CCCCN(CC)S(=O)(=O)c1cc(Cl)ccc1Cl	i
CC(C)CC(=O)N1CCC(N2CCN(c3ccccc3F)CC2)CC1	i
c1ccc(CSc2n[nH]c(-c3ccncc3)n2)cc1	i
CCCC(=O)Nc1ccc(Br)c(C)n1	i
Cc1cc(C)cc(C(=O)Nc2ccc(C(N)=O)cc2)c1	3%
O=C(c1cc(-c2ccc(Cl)c(Cl)c2)nc2ccccc12)N1CCCCC1	i
C=CCOc1ccc(NC(=O)C(=O)NCC(C)O)cc1 (stereo not given)	i
Cc1ccc(C)c(NC(=O)C(C)N2C(=O)C3C4C=CC(C4)C3C2=O)c1 (stereo not given)	i
Cc1ccc([N+](=O)[O-])cc1NC(=O)COc1ccc(Br)cc1C	3%
CCOc1cc(/C=C2\C(=O)NN(c3ccccc3)C2=O)cc(Br)c1OC(=O)c1ccco1	0%

14 compounds picked at random from the list so far:
SMILES	Mtb H37Rv
O=C(Nc1cccc2ncccc12)C(Cl)(Cl)Cl	2%
COc1cccc(NC(=O)CN(c2ccc(C)cc2C)S(C)(=O)=O)c1	2%
CCc1ccccc1NC(=O)CN(c1ccc(I)cc1)S(C)(=O)=O	i
c1ccc(CSc2n[nH]c(-c3ccncc3)n2)cc1	i
CCOc1cc(/C=C2\C(=O)NN(c3ccccc3)C2=O)cc(Br)c1OC(=O)c1ccco1	0%
Cc1ccc([N+](=O)[O-])cc1NC(=O)COc1ccc(Br)cc1C	3%
Cc1ccc(C)c(NC(=O)C(C)N2C(=O)C3C4C=CC(C4)C3C2=O)c1 (stereo not given)	i
CN(c1ncnc2c1cnn2-c1ccccc1)C1CCCCC1	24%
Cc1cc(C)cc(C(=O)Nc2ccc(C(N)=O)cc2)c1	3%
CCCn1c(SCC(=O)Nc2ccc(CC)cc2)nnc1-c1ccncc1	i
CCCCN(CC)S(=O)(=O)c1cc(Cl)ccc1Cl	i
C=CCOc1ccc(NC(=O)C(=O)NCC(C)O)cc1 (stereo not given)	i
COCCn1c(CN2CCc3ccccc3C2)nc2c1c(=O)n(C)c(=O)n2C	i
CCCC(=O)Nc1ccc(Br)c(C)n1	i
